High-throughput results: PubChem BioAssay, Southern Research Institute
Mtb growth: Mycobacterium tuberculosis H37Rv growth inhibition, cell based, confirmatory dose response (AID 1949). most inactive calls were filed without a number and no value below 0 was filed. inhibition, % at 10 µg/mL; hits with a dose series show IC50 in µg/mL. actives 1.6% (n = 100,000);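 active means confirmed in a dose series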;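 further: bacteria grown 7 days with compound before Alamar blue readout; 0% = untreated bacteria and 100% = reference antibiotic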
Active calls of the source: *; i = inactive. An excerpt, so the mix of outcomes need not match the whole.

SMILES	Mtb growth
CCc1cc(=O)oc2cc(OCc3ccccc3C)ccc12	i
Cc1ccc(F)c(NC(=O)CSc2ncn(-c3ccccc3)n2)c1	i
CC(C)CNC(=O)c1ccccc1NC(=O)c1cccc2ccccc12	i
COc1cc(CO)ccc1OCc1ccc(Cl)c(Cl)c1	15%
COc1cc(C(=O)Oc2ccc3ccc(=O)oc3c2)cc(OC)c1OC	i
CC1(C)C2CCC1(C(=O)Nc1ccccc1)C(=O)C2=O (stereo unspecified)	i
O=C(O)c1cccnc1SC1CC(=O)N(C2CCCCC2)C1=O (stereo unspecified)	i
CCN(CC)c1ccc(NC(=O)c2ccc([N+](=O)[O-])c(C)c2)c(C)c1	i
O=C(c1csc2ccccc12)N1CCN(CCc2ccccc2)CC1	i
CC(NC(=O)Nc1ccc(Br)cc1Cl)C1CCCO1 (stereo unspecified)	i
CCc1cc(C(=O)OC)c(NC(=O)CC2Nc3cc(C)c(C)cc3NC2=O)s1 (stereo unspecified)	i
COC(=O)Cc1c(C)c2ccc(OCC(=O)C(C)(C)C)cc2oc1=O	2%

Next part; it opens with the four that closed the last part.
SMILES	Mtb growth
O=C(c1csc2ccccc12)N1CCN(CCc2ccccc2)CC1	i
CC(NC(=O)Nc1ccc(Br)cc1Cl)C1CCCO1 (stereo unspecified)	i
CCc1cc(C(=O)OC)c(NC(=O)CC2Nc3cc(C)c(C)cc3NC2=O)s1 (stereo unspecified)	i
COC(=O)Cc1c(C)c2ccc(OCC(=O)C(C)(C)C)cc2oc1=O	2%
COC(=O)c1cc(OC)c(OC)cc1NC(=S)N1CCCC1	i
CCOC(=O)c1ccc(NC(=O)CSc2nnc(-c3ccccc3)n2-c2ccccc2)cc1	i
O=C(O)C1(c2ccccc2)CCN(S(=O)(=O)c2ccc(F)cc2)CC1	i
COc1ccc(S(=O)(=O)N2CCOCC2)c2ccccc12	i
Cc1cc(C(=O)N2CCN(C/C=C/c3ccccc3)CC2)ccc1[N+](=O)[O-]	i
COc1ccc(N2CCN(C(=O)CN(Cc3ccccc3)S(C)(=O)=O)CC2)cc1	i
CCCCN(C)S(=O)(=O)c1cc(-c2n[nH]c(=O)c3ccccc23)ccc1C	i
Cc1ccc(OCC(=O)Nc2nc3ccccc3s2)c(C)c1	i
Cc1ccc(S(=O)(=O)NC(C)C(=O)NCc2ccc(Cl)cc2)cc1 (stereo unspecified)	i
O=C(Cc1ccccc1[N+](=O)[O-])NCCSc1ccc(Cl)cc1	i
Cn1cc(C(=O)NNC(=S)NCc2ccco2)c2ccccc21	i
CC(=O)c1cnc2c(C(=O)O)cnn2c1C	i

11 structures already listed, sorted by number of heavy atoms, rising.
SMILES	Mtb growth
CC(=O)c1cnc2c(C(=O)O)cnn2c1C	i
CC(NC(=O)Nc1ccc(Br)cc1Cl)C1CCCO1 (stereo unspecified)	i
COc1ccc(S(=O)(=O)N2CCOCC2)c2ccccc12	i
Cc1ccc(OCC(=O)Nc2nc3ccccc3s2)c(C)c1	i
Cn1cc(C(=O)NNC(=S)NCc2ccco2)c2ccccc21	i
Cc1ccc(S(=O)(=O)NC(C)C(=O)NCc2ccc(Cl)cc2)cc1 (stereo unspecified)	i
O=C(O)C1(c2ccccc2)CCN(S(=O)(=O)c2ccc(F)cc2)CC1	i
Cc1cc(C(=O)N2CCN(C/C=C/c3ccccc3)CC2)ccc1[N+](=O)[O-]	i
CCc1cc(C(=O)OC)c(NC(=O)CC2Nc3cc(C)c(C)cc3NC2=O)s1 (stereo unspecified)	i
COc1ccc(N2CCN(C(=O)CN(Cc3ccccc3)S(C)(=O)=O)CC2)cc1	i
CCOC(=O)c1ccc(NC(=O)CSc2nnc(-c3ccccc3)n2-c2ccccc2)cc1	i

Additional entries
SMILES	Mtb growth
CCC(C)(C)C1CCc2c(sc(NC(=O)c3cnccn3)c2C#N)C1 (stereo unspecified)	i
CCOC(=O)c1ccc(NC(=O)c2sc3c(Cl)c(OC)ccc3c2Cl)cc1	i
CCCCc1ccc(NC(=O)c2ccc(O)cc2)cc1	36%
Cc1ccccc1CNC(=O)c1ccc(N(C)S(C)(=O)=O)cc1	i
Cc1ccc2[nH]c(=O)c(CN(C)S(C)(=O)=O)cc2c1	i
CCN(CC)C(=O)Nc1ccc(C(=O)OC)cc1	i
NC(=O)c1ccccc1NC(=S)NC(=O)c1ccccc1Cl	i
COc1ccc(C2C(C#N)=C(N)Oc3cc4c(cc32)OCO4)cc1 (stereo unspecified)	i
Cc1ccc(C(C)C)c(OCCCCN2CC(C)OC(C)C2)c1 (stereo unspecified)	i
CNC(=O)N1CCN(C(=O)NC)CC1	i
COc1ccc(Cl)cc1C(=O)Nc1c(C)cccc1C(C)C	i
Cc1ccc(C(=O)Nc2ccc(N3CCN(Cc4ccccc4)CC3)cc2)cc1[N+](=O)[O-]	i
C=CCN(CC=C)c1ncnc2ccc(Br)cc12	i
CC(=O)Nc1ccc(NS(=O)(=O)c2cccs2)cc1	i
Cc1ccc(C(=O)Nc2ccc(OCc3ccccc3)cc2)c(C)c1	i
N#C/C(=C\c1ccc(F)cc1)c1nc2cc(C(F)(F)F)ccc2s1	7%
O=C(c1cc2cc(Cl)ccc2oc1=O)c1cc2cc(Cl)ccc2oc1=O	26%
N#CCc1ccc(NC(=O)c2ccc(COc3ccc(Cl)cc3)o2)cc1	i
COc1cccc(-c2nn(-c3ccccc3)cc2C(=O)N2CCOCC2)c1	i
CCCCN(C)S(=O)(=O)c1ccc(C(=O)Nc2ccc(C(=O)OC)cc2)cc1	0%
O=C(Nc1ccc(N2CCCCC2)cc1)c1ccncc1	i
COc1cccc2cc(C(=O)NCc3ccccc3Cl)c(=O)oc12	i
CC1CCc2c(sc(NC(=O)c3ccccc3F)c2C(=O)NCc2ccccc2)C1 (stereo unspecified)	i
CCOc1ccc(NS(=O)(=O)c2ccc(NS(=O)(=O)c3ccc(C)cc3)cc2)cc1	i
Cc1ccc(S(=O)(=O)N(C)CC(=O)Nc2cccc(Cl)c2C)cc1	i
CC(=O)Nc1cccc(N(C)S(C)(=O)=O)c1	i
O=S(=O)(NCc1cccnc1)c1cccc2cccnc12	1%
CCCCc1ccc(NC(=S)N2CCN(c3ncccn3)CC2)cc1	2%
Cc1ccc(C)c(NC(=S)NC(NC(=O)c2ccccc2F)C(Cl)(Cl)Cl)c1 (stereo unspecified)	12%
Nc1nc(SCC(=O)NCCCO)nc2sc3c(c12)CCC3	i
C=CCn1c2ccccc2c2n[nH]c(=S)nc21	4%
O=C(NC1CCCC1)c1ccc(COc2cc(Cl)ccc2Cl)o1	i
COC(=O)COc1ccc(C)cc1C(C)=O	i
COc1ccc(NC(=O)CSc2nnc(NC(=O)c3cccc(C)c3)s2)c([N+](=O)[O-])c1	i
Cc1ccc(NC(N)=Nc2nc(C(F)(F)F)cc(C(F)(F)F)n2)c(C)c1	0%
Brc1ccc(CSc2nnc(SCc3ccccc3)s2)cc1	10%
O=C(NC(=S)NCc1ccco1)c1cccc(Cl)c1	i
Cc1nn(-c2cc(N3CCN(C(=O)c4ccco4)CC3)ccc2[N+](=O)[O-])c(=O)c2ccccc12	i
CCN1CCN(CCCCOc2ccc(-c3ccccc3)cc2)CC1	i
O=C(CCCC(=O)NCc1ccc(F)cc1)NCc1ccc(F)cc1	i
COc1ccc(C(=O)CCN2CCCC(C)C2)cc1 (stereo unspecified)	35µg/mL*
Cc1ccc(C(=O)CSc2nnc(-c3cccnc3)n2N)cc1	i
COc1cccc2cc(C(=O)C3=C(O)C(=O)N(CCc4ccccc4)C3c3cccnc3)oc12 (stereo unspecified)	i
CCOC(=O)Cc1csc(NC(=O)COc2ccccc2OCC)n1	i
CC(CNC(=O)c1ccc(Cl)cc1)CN(C)C (stereo unspecified)	i
Cc1ccc(C(C)C)c(OCC(=O)Nc2ccccc2C#N)c1	i
CNCCCCOc1ccc(C)cc1OC	i
CC1CCCCN1C(=O)c1cc(-c2ccc(Cl)s2)nc2ccccc12 (stereo unspecified)	35%

For convenience, two of the compounds above:
SMILES	Mtb growth
Cc1ccc(C(=O)CSc2nnc(-c3cccnc3)n2N)cc1	i
COc1cccc2cc(C(=O)C3=C(O)C(=O)N(CCc4ccccc4)C3c3cccnc3)oc12 (stereo unspecified)	i

Additional structures follow:
SMILES	Mtb growth
COc1cccc(C2C(C(=O)Nc3cccc(C)n3)=C(C)NC3=C2C(=O)CC(C)(C)C3)c1 (stereo unspecified)	i
C=CCNC(=O)C12CCC(C)(C(=O)O1)C2(C)C (stereo unspecified)	i
Cc1nnc2sc(-c3ccccc3N)nn12	i
CCC(C)c1ccccc1OCCCN(C)Cc1ccccc1 (stereo unspecified)	11%
CCOc1ccccc1OC(=O)c1ccc(OC)cc1	i
CCOC(=O)c1ccc(-c2ccc(C=NN3C(=O)C4C5C=CC(C6CC56)C4C3=O)o2)cc1 (stereo unspecified)	1%
C=CCN(CC=C)C(=O)c1ccc(OC)c(I)c1	i
Cc1ccc(-c2nnc(N3CCN(C(=O)c4ccc(Cl)cc4)CC3)c3ccccc23)cc1	3.6µg/mL*
CSc1cccc(NC(=O)c2ccccc2Sc2ccccc2C#N)c1	i
O=C(Nc1nc2ccc(F)cc2s1)c1cccnc1	i
Cc1ccc(N2CC(C(=O)NCCCN3CCOCC3)CC2=O)cc1Cl (stereo unspecified)	i
CN1CCC(OC(=O)COc2ccc(Br)cc2)CC1	i
CCn1c(C)nc2cc(S(=O)(=O)N3CCCCC3)ccc21	i
Cc1cc(-c2nc3ncccc3o2)ccc1NC(=O)C(C)(C)C	i
O=S(=O)(Cc1ccccc1Cl)Nc1ccc(N2CCOCC2)cc1	i
CN1CCN(CCOCCSc2ccc(Cl)cc2)CC1	i
O=C(NC(=S)Nc1ccc(-c2nc3ncccc3o2)cc1)c1ccc2c(c1)OCCO2	i
CCc1ccc(OCC(=O)O/N=C(\N)c2cccc(C)c2)c(Br)c1	0%
N#Cc1c(NC(=O)Cn2cc([N+](=O)[O-])cn2)sc2c1CCC2	0%
Cc1c(NC(=S)NC(=O)C(C)(C)C)cccc1C(=O)O	i
Cc1cccc(C)c1OCC(=O)Nc1ccccc1C(F)(F)F	i
Cc1ccc(S(=O)(=O)N2CCC(C(=O)NCc3cccnc3)CC2)cc1	i
COc1ccc(S(=O)(=O)N(C)CC(=O)Nc2cc(C(F)(F)F)ccc2Cl)cc1C	i
CCOC(=O)c1ccc(NC(=O)CN(C)S(=O)(=O)c2ccc(Br)cc2)cc1	i
COC(=O)CN(C1CCCCC1)S(=O)(=O)c1ccccc1	i
CCC(=O)Nc1ccc(-c2nc3cc(Cl)ccc3c(=O)o2)cc1	i
COc1cccc(OC)c1C(=O)NC(=S)Nc1ccc(C)cc1Br	i
CCOC(=O)c1ccccc1NC(=O)c1ccccc1SC	6%
CCOC(=O)C1=C(C)NC2=C(C(=O)CC(c3ccc(OC)cc3)C2)C1c1ccsc1 (stereo unspecified)	13%
O=C(Nc1cc(Cl)ccc1Cl)c1ccc(-c2ccccc2Cl)o1	i
Cc1cccc(NC(=S)NC(=O)C2CCCCC2)c1	17%
Cc1ccc(F)c(NC(=O)c2c(-c3ccccc3)noc2C)c1	i
Cc1ccc2oc(=O)n(CCCOc3ccccc3C)c2c1	i
O=C(C1CCN(Cc2cccc3ccccc23)CC1)N1CCN(c2ccccc2F)CC1	0%
N#Cc1c(-c2ccccc2)cc(=O)n2c1[nH]c1ccccc12	i
O=C(Nc1cccc(F)c1)c1ccccc1N(Cc1ccccc1)S(=O)(=O)c1ccccc1	0%
COc1ccc(OCCC(=O)NC2=NCCS2)cc1	i
CC(NS(=O)(=O)c1ccc(OCC(=O)NCc2ccccn2)cc1)c1ccccc1 (stereo unspecified)	i
O=C(Oc1ccccc1Cl)C(c1ccccc1)c1ccccc1	i
COc1cc2c(cc1NC(=O)C(F)(F)F)oc1ccccc12	12%
COc1ccc(-c2csc(Nc3cccc([N+](=O)[O-])c3)n2)cc1OC	i
CC(C)Oc1cccc(C(=O)Nc2ccc(F)cc2F)c1	i
CCCNC(=O)c1ccccc1NC(=O)CN(c1ccc(F)cc1)S(=O)(=O)c1ccc2c(c1)OCCO2	29%
C=CCN1C(=O)C2(C(C#N)=C(N)Oc3ccccc32)c2c1n[nH]c2C (stereo unspecified)	i
CSCCC(C(=O)Nc1nc2ccccc2s1)N1C(=O)c2ccccc2C1=O (stereo unspecified)	i
COc1ccc(CNC(=S)NC23CC4CC(CC(C4)C2)C3)cc1	i
O=S(=O)(NCCOc1cccc2cccnc12)c1ccc(F)cc1	3%
N/C(=N\OC(=O)N1c2ccccc2Sc2ccccc21)c1ccc([N+](=O)[O-])cc1	i
COc1ccc(N2C(=O)N(c3cccc(C)c3)C3CS(=O)(=O)CC32)cc1 (stereo unspecified)	i
CS(=O)(=O)N(CC(=O)Nc1ccc(Br)cc1F)Cc1ccccc1	i
COc1ccc(S(=O)(=O)NNC(=S)Nc2ccc(F)cc2F)cc1	i
CCCCN(C)S(=O)(=O)c1ccc(C(=O)Nc2nnc(SCc3ccccc3)s2)cc1	i
Cc1cccc(C(=O)Nc2ccc(Oc3ccc4c(c3)C(=O)NC4=O)cc2)c1	i
CCc1nc(SCC(=O)N(c2ccccc2)c2ccccc2)n[nH]1	i
COc1ccc2nc(/C(C#N)=C\c3ccc(N4CCCCCC4)o3)[nH]c2c1	5%
O=C(Nc1ccccc1-c1ccccc1)c1ccc(Cl)c(S(=O)(=O)N2CCOCC2)c1	i
Cc1nnc(Nc2ccc(F)cc2)c2ccccc12	i
Cc1ccc(S(=O)(=O)Nc2ccc3nc(-c4ccc(Br)o4)[nH]c3c2)cc1	5%
CCOc1ccc(C(=O)NC(=S)Nc2ccc(C(=O)O)c(Cl)c2)cc1	21%
O=C(Nc1nc2c(Cl)c(Cl)ccc2s1)c1ccccc1I	4%
(list continues)
SMILES	Mtb growth
O=C(O)c1ccc(Cl)c(NC(=S)NC(=O)c2ccco2)c1	0%
CCn1cc(NC(=O)Nc2ccc(OC)c(OC)c2)c(C(N)=O)n1	1%
CC(c1ccccc1)N1CCC(CN)C1 (stereo unspecified)	i
COc1ccc([N+](=O)[O-])cc1NC(=O)COc1ccc(C(C)C)cc1Br	i
